Six1-Eya2 inh: qHTS Assay for Inhibitors of the Six1/Eya2 Interaction; AlphaScreen GST-Six1/His-Eya2 binding, biochemical; hits give low values; control for the full effect not named in the record; Homeobox protein SIX1 (Homo sapiens) + Protein phosphatase EYA2 (Homo sapiens), …; activity change, % (test concentration not listed); AID 651725, 2012; 360,000 compounds, 0.56% hits; in the data active = activity change below about -65%; inconclusive = about -30% to -65%; inactive = above about -30%; note: % is set by controls: 0 for no effect and ±100 for the full control effect
Target sequence (O00167 whole entry, looked up): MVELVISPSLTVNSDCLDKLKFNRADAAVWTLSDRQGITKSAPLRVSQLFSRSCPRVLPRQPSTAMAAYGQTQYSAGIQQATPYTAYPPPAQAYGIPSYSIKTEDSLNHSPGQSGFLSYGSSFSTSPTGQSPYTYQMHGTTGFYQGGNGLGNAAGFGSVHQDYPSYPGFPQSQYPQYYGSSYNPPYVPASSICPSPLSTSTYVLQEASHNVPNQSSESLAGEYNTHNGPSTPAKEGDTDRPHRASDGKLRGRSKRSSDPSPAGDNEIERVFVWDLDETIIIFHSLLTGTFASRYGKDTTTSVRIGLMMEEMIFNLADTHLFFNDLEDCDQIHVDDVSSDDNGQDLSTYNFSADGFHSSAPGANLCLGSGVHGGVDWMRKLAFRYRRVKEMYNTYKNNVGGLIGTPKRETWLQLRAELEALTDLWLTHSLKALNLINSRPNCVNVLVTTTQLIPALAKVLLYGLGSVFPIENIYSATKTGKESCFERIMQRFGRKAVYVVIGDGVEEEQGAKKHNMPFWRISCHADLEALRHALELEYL
Target sequence (Q15475 whole entry, looked up): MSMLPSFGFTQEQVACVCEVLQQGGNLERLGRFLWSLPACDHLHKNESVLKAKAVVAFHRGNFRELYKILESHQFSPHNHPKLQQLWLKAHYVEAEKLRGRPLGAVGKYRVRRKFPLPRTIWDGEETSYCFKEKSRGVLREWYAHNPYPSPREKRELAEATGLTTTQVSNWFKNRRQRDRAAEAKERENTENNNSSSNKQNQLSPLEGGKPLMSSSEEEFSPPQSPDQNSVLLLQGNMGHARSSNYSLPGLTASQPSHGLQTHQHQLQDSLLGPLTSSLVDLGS
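Compounds are tested against tagged Six1 and Eya2 proteins bridged by glutathione donor and nickel acceptor beads; after a one-hour incubation at 37 °C without light, AlphaScreen emission is recorded.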
TRPML1 blocker: qHTS for Inhibitors of the Human Mucolipin Transient Receptor Potential 1 (TRPML1); 390,000 compounds, 0.02% hits; Mucolipin-1 (Homo sapiens), Q9GZU1; activity change, negative = inhibition, % (no concentration beside the values); TRPML1-inducible cells, Ca2+ dye fluorescence, FDSS; hits give low values; inhibition of EC80 agonist-evoked calcium signal; in the data active means activity change below about -50%; inconclusive means about -30% to -50%; inactive means above about -30%;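 note: stimulus is agonist 54-4 at its EC80 concentration; % is set by controls: 0 for no effect and ±100 for the full control effect; compound concentration not given in the record; the text of the record puts the active cut at -80%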
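Tet-induced TRPML1-DL cells loaded with Ca8 no-wash calcium dye were read kinetically on FDSS. Compound addition was followed by EC80 agonist 54-4 (4 uM final); inhibition was read over 110 s.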
TRPML1 agonist: qHTS for Agonists of the Human Mucolipin Transient Receptor Potential 1 (TRPML1); TRPML1-expressing cells, Ca2+ dye fluorescence, FDSS; host cell line not named in the record; reference of the full effect not given here; AID 624414, 2012; 410,000 compounds, 0.12% hits; activation, % (test concentration not listed); Mucolipin-1 (Homo sapiens), Q9GZU1; in the data active = activation above about 50%; inconclusive = about 30% to 50%; inactive = below about 30%; note: 0% is about no effect; the text of the record puts the active cut at 80%
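Cells: TRPML1-DL, 1X Tet inducer, ~16 h at 37 degrees C/5% CO2. Dye: ABD Ca8 no-wash + quencher, 45-90 min RT. Read: 10 s baseline, compound add, 110 s agonist phase; 54-4 EC80 (4uM final), 110 s antagonist phase.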
D2 potentiator: Beta-Arrestin HTS for Positive Allosteric Modulators of the Human D2 Dopamine Receptor: Potentiators. D(2) dopamine receptor (Homo sapiens), P14416. DiscoveRx D2 beta-arrestin cells, luminescence, 90 min; 100% = 57 uM dopamine signal. potentiation, % (test concentration not listed). 360,000 compounds, 0.23% hits. AID 624464, 2012; active = potentiation of 50% or more; inconclusive = 30% to 50%; inactive = 30% or less;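 note: compound concentration not given in the record; tested on top of an EC20 dose of dopamine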
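D2 cells co-treated with compound plus 50 nM dopamine (EC20) for 90 min at 37 deg C to detect potentiation. Beta-arrestin recruitment was read as enzyme-fragment luminescence after 1 h at ambient temperature. Full response was set by 57 uM dopamine.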
PINK1 modulator: A Quantitative High throughput Screen to Identify Chemical Modulators of PINK1 Expression; PINK1 immunofluorescence, high-content cytometry, 24 h; Potency, µM (titrated, usually from 76.6 µM), for the others: top-dose activation (PINK1 increase), hits mostly activators; 410,000 compounds, 0.2% hits; active = well fitted activation curve with a large enough effect; inconclusive = small, poorly fitted or top-dose-only effect; inactive = flat fitted curve, though single readings scatter; cell line not stated here;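 note: potency is the fitted concentration of half-maximal effect; % of control where 0% means no effect; nearly all actives have a fitted effect of over 65% in size; a mitochondrial uncoupler was the plate control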
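PINK1 protein level read as immunofluorescence by microplate cytometer in a fixed, stained stable cell line after 24 h exposure to five compound concentrations, with CCCP as control.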
D2 ag: Beta-Arrestin HTS for Positive Allosteric Modulators of the Human D2 Dopamine Receptor: Agonists; 360,000 compounds, 0.084% hits; activation, % (test concentration not listed); DiscoveRx PathHunter D2 beta-arrestin, luminescence, 90 min; 100% = 57 uM dopamine signal; in the data active = activation above about 40%; inconclusive = about 15% to 40%; inactive = below about 15%; note: compound concentration not given in the record; the text of the record calls up to 30% inactive
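Agonist mode: compounds alone added to overnight-plated D2 PathHunter cells for 90 min at 37 C, with 57 uM final dopamine (EC100) defining full response. Beta-arrestin recruitment detected by chemiluminescent reagent, read after 1 h at ambient temperature.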
* = called active by the depositor; & = joins results of further samples; [ ] = dose if it differs, or a comment.

Start of the listing, in advance, 3 compounds:
COc1ccccc1Oc1ccc(S(=O)(=O)N2CCOCC2)cc1S(=O)(=O)N1CCOCC1 was read as Six1-Eya2 inh 5, TRPML1 blocker 20, TRPML1 agonist -0.1, D2 potentiator -4, PINK1 modulator -0.5% and D2 ag -3.7.
`Cc1ccnc(Nc2nc(-c3ccc(F)cc3)cs2)c1` gave Six1-Eya2 inh -8, TRPML1 blocker -2, TRPML1 agonist 0.5, D2 potentiator 2, PINK1 modulator 1.1% and D2 ag 5.7.
For C/C=C/c1ccc(OCCCCOc2ccccc2F)c(OC)c1 the results were Six1-Eya2 inh 28, TRPML1 blocker -5, TRPML1 agonist 0.1, D2 potentiator -3, PINK1 modulator 5.2% and D2 ag -2.7.

All compounds of this part (from the top)
COc1ccccc1Oc1ccc(S(=O)(=O)N2CCOCC2)cc1S(=O)(=O)N1CCOCC1 was read as Six1-Eya2 inh 5, TRPML1 blocker 20, TRPML1 agonist -0.1, D2 potentiator -4, PINK1 modulator -0.5% and D2 ag -3.7.
`Cc1ccnc(Nc2nc(-c3ccc(F)cc3)cs2)c1` gave Six1-Eya2 inh -8, TRPML1 blocker -2, TRPML1 agonist 0.5, D2 potentiator 2, PINK1 modulator 1.1% and D2 ag 5.7.
For C/C=C/c1ccc(OCCCCOc2ccccc2F)c(OC)c1 the results were Six1-Eya2 inh 28, TRPML1 blocker -5, TRPML1 agonist 0.1, D2 potentiator -3, PINK1 modulator 5.2% and D2 ag -2.7.
Screening COc1ccc(CNC(=S)NC2CCCC2)cc1 returned Six1-Eya2 inh 14, TRPML1 blocker -16, TRPML1 agonist 1.6, D2 potentiator -10, PINK1 modulator -0.9% and D2 ag -5.2.
`C=CCN(CC=C)Cc1c(O)ccc2c1oc(=O)c1ccccc12` gave Six1-Eya2 inh -14, TRPML1 blocker -5, TRPML1 agonist -0.6, D2 potentiator -40, PINK1 modulator -0.3%[38.3 µM] and D2 ag -6.9.
Screening COc1ccc(S(=O)(=O)N2CCCCCC2)cc1C(=O)N(C)CCOc1ccccc1 returned Six1-Eya2 inh -2, TRPML1 blocker -1, TRPML1 agonist 0.1, D2 potentiator -20, PINK1 modulator 0.2% and D2 ag -9.5.
For Nc1nc(N)nc(C2C=CCCC2)n1 (stereo unspecified) the results were Six1-Eya2 inh -16, TRPML1 blocker -19, TRPML1 agonist -0.2, D2 potentiator -8, PINK1 modulator -3.6% and D2 ag -2.8.
Screening Cc1cccc(-c2nc(CN3CCCC(C(=O)NC4CCCCCC4)C3)c(C)o2)c1 (stereo unspecified) returned Six1-Eya2 inh -13, TRPML1 blocker 6, TRPML1 agonist -0.1, D2 potentiator -23, PINK1 modulator 24%[38.3 µM] and D2 ag -4.4.
Screening CCOc1ccc(CCNC(=O)c2ccc(CS(=O)Cc3cccc(Cl)c3)o2)cc1 (stereo unspecified) returned Six1-Eya2 inh -4, TRPML1 blocker 19&-14, TRPML1 agonist -1.2&-0.6, D2 potentiator -9, PINK1 modulator 0.3%&-0.9% and D2 ag -1.7.
For Cc1cc2oc(=O)cc(CN3CCCc4ccccc43)c2cc1C the results were Six1-Eya2 inh -5, TRPML1 blocker -3, TRPML1 agonist -0.3, D2 potentiator -9, PINK1 modulator 8.2% and D2 ag -1.8.
Screening O=C(OCn1nnc2ccccc2c1=O)c1ccc2ncsc2c1 returned Six1-Eya2 inh -1, TRPML1 blocker -6, TRPML1 agonist -1.2, D2 potentiator 7, PINK1 modulator -2.2% and D2 ag -2.4.
For O=C(Cc1ccsc1)Nc1ccc(Cl)cc1Cl the results were Six1-Eya2 inh 1, TRPML1 blocker -6, TRPML1 agonist 2.6, D2 potentiator -8, PINK1 modulator 0.1% and D2 ag -4.6.
CC(C)C[C@H]1CNC(=O)C(=O)N1CC1CCN(CCc2ccccc2)CC1 was read as Six1-Eya2 inh 2, TRPML1 agonist 0.0, D2 potentiator -11, PINK1 modulator -0.1% and D2 ag -4.5.
For COc1cccc(NC(=O)Cn2c(=O)n(CCc3ccccc3)c(=O)c3c4c(sc32)CN(C(C)=O)CC4)c1 the results were TRPML1 blocker 40, TRPML1 agonist 0.7 and PINK1 modulator 0.1%.
Screening CC(C)c1ccc(Nc2ncccc2C#N)cc1 returned Six1-Eya2 inh 24, TRPML1 blocker -2, TRPML1 agonist -0.9, D2 potentiator -7, PINK1 modulator -0.9% and D2 ag -3.2.
For CN(C)N1C(=O)CC(N2CCCC2)C1=O (stereo unspecified) the results were Six1-Eya2 inh 3, TRPML1 blocker 7, TRPML1 agonist -0.7, D2 potentiator 0, PINK1 modulator -0.1% and D2 ag -3.2.
Screening CCCn1c(=O)c2ccccc2n2c(SCC(=O)/C(C#N)=C(\C)N)nnc12 returned Six1-Eya2 inh 0, TRPML1 blocker 21, TRPML1 agonist 0.3, D2 potentiator -7, PINK1 modulator inconclusive and D2 ag -0.8.
CCn1cc(C(=O)NCCCN2CCC(C)CC2)c(=O)c2cc(S(=O)(=O)N(C)C3CCCCC3)ccc21 was read as Six1-Eya2 inh -2, TRPML1 blocker -8&8, TRPML1 agonist -0.3&-0.4, D2 potentiator -9, PINK1 modulator 0.9%&0.0% and D2 ag -0.9.
For COc1ccc(C)c2sc(=NC(=O)c3ccc(C(C)=O)cc3)n(C)c12 the results were Six1-Eya2 inh 1, TRPML1 blocker -21, TRPML1 agonist 1.4, D2 potentiator -10, PINK1 modulator 2.3% and D2 ag -3.4.
Cc1cccc(CSc2nc(=O)c3c(n2C)NC(=O)CC3c2cc(F)cc(F)c2)c1 (stereo unspecified) was read as TRPML1 blocker -6, TRPML1 agonist -0.3 and PINK1 modulator 0.2%.
For O=C(O)c1ccccc1-c1cccc2nncn12 the results were Six1-Eya2 inh 4, TRPML1 agonist -0.3, D2 potentiator -11, PINK1 modulator 2.5% and D2 ag -4.6.
Screening O=C(Nc1ccc(-c2nnc3n2CCCCC3)cc1)c1cc2ccccc2o1 returned Six1-Eya2 inh 2, TRPML1 blocker 3, TRPML1 agonist -0.3, D2 potentiator 1, PINK1 modulator -0.6% and D2 ag 4.4.
`O=C1CC(c2ccco2)CC2=C1C=Nc1ccccc1N2` (stereo unspecified) gave Six1-Eya2 inh 4, TRPML1 blocker 5, TRPML1 agonist 0.2, D2 potentiator 1, PINK1 modulator -2.6% and D2 ag -1.3.
Screening Cc1ccc(NC(=O)[C@@H]2CCCN2C(=O)[C@@H]2Cc3ccccc3CN2)c(C)c1 returned Six1-Eya2 inh -11, TRPML1 blocker -9, TRPML1 agonist 1.2, D2 potentiator -26, PINK1 modulator -0.4% and D2 ag 3.5.
`CC1CN(CC(O)COC2CCC(C(C)(C)C)CC2)CC(C)O1` (stereo unspecified) gave Six1-Eya2 inh 2, TRPML1 blocker 4, TRPML1 agonist 0.0, D2 potentiator -6, PINK1 modulator 2.6% and D2 ag -1.9.
For COc1cc(OC)cc(C(=O)NC(=S)Nc2ccc(N3CCCC3)cc2)c1 the results were Six1-Eya2 inh -30, TRPML1 blocker -10, TRPML1 agonist 2.0, D2 potentiator -15, PINK1 modulator 14% and D2 ag -3.6.
Cc1ccc(-n2nc(C(=O)O)c3ccccc3c2=O)cc1C was read as Six1-Eya2 inh 4, TRPML1 blocker 15, TRPML1 agonist 2.8, D2 potentiator 1, PINK1 modulator 0.4% and D2 ag 3.3.
For CCCCn1c(N)c(N(CC)C(=O)C2CCCC2)c(=O)[nH]c1=O the results were Six1-Eya2 inh 8, TRPML1 blocker 18, TRPML1 agonist -0.9, D2 potentiator -5, PINK1 modulator 1.0% and D2 ag -3.3.
Screening COc1ccc2[nH]c3nc(SC(C)C)nnc3c2c1 returned Six1-Eya2 inh -4, TRPML1 blocker 11, TRPML1 agonist -0.9, D2 potentiator -5, PINK1 modulator 12% and D2 ag -4.7.
`CC(NC(=O)c1cc(S(=O)(=O)N(C)C)ccc1Cl)c1ccc(-n2ccnc2)cc1` (stereo unspecified) gave Six1-Eya2 inh 3, TRPML1 blocker -6, TRPML1 agonist 1.8, D2 potentiator -12, PINK1 modulator -0.5% and D2 ag 1.3.
Cc1ccc(C)c(N2CCN(C(=O)CCS(=O)(=O)c3ccc4c(c3)CCN4C(=O)C3CC3)CC2)c1 was read as Six1-Eya2 inh -9, TRPML1 blocker 28, TRPML1 agonist 1.5, D2 potentiator -1, PINK1 modulator 0.7% and D2 ag 0.0.
Cn1cccc1C(=O)c1cccc([N+](=O)[O-])c1 was read as Six1-Eya2 inh -11, TRPML1 blocker 0, TRPML1 agonist -0.3, D2 potentiator -2, PINK1 modulator 2.6% and D2 ag -7.3.
For Nc1nc(-c2ccc(Cl)cc2)c(N=Nc2ccc(S(=O)(=O)N3CCOCC3)cc2)s1 the results were Six1-Eya2 inh -13, TRPML1 blocker 0, TRPML1 agonist 0.1, D2 potentiator -9, PINK1 modulator 12% and D2 ag -6.4.
For CC(C)=CCC/C(C)=C/CNC(=O)C[C@H]1C[C@H](C(=O)N2CCOCC2)[C@@]2(CCC3CCCC3)c3[nH]c4cc(-c5ccco5)ccc4c3CCN2C1=O the results were Six1-Eya2 inh -13, TRPML1 blocker 2, TRPML1 agonist 2.0, D2 potentiator -2, PINK1 modulator -1.1% and D2 ag -0.1.
Screening CCOC(=O)NC(NC(=S)Nc1ccc(OCC)cc1)C(Cl)(Cl)Cl (stereo unspecified) returned Six1-Eya2 inh 2, TRPML1 blocker 3, TRPML1 agonist 1.1, D2 potentiator 14, PINK1 modulator 10% and D2 ag 4.8.
`CC(C)NC(=O)COC(=O)c1ccc(NS(=O)(=O)c2ccc3c(c2)OCCO3)cc1` gave Six1-Eya2 inh 10, TRPML1 blocker 8, TRPML1 agonist 1.2, D2 potentiator 2, PINK1 modulator -2.5% and D2 ag 0.6.
`CCOC(=O)CC1C(=O)NCCN1Cc1cccc(OC)c1` (stereo unspecified) gave Six1-Eya2 inh 3, TRPML1 blocker -2, TRPML1 agonist -0.5, D2 potentiator -3, PINK1 modulator 1.0% and D2 ag 1.4.
COc1ccc(-n2nc(C(=O)NCC(=O)NCC3CCCO3)c3ccccc3c2=O)cc1Cl (stereo unspecified) was read as Six1-Eya2 inh 3, TRPML1 blocker 7, TRPML1 agonist -0.7, D2 potentiator 7, PINK1 modulator -4.7% and D2 ag 0.4.
Fc1ccc(CNC(=S)NCc2ccccc2)cc1 was read as Six1-Eya2 inh 3, TRPML1 blocker 23, TRPML1 agonist 0.6, D2 potentiator -11, PINK1 modulator 2.7% and D2 ag -1.0.
For CCc1c(O)nc(SCC(=O)Nc2ccc3c(c2)CCC3)[nH]c1=O the results were Six1-Eya2 inh 2, TRPML1 blocker 48, TRPML1 agonist 0.1, D2 potentiator -8, PINK1 modulator 0.4% and D2 ag 1.3.

Screening results deposited in PubChem by National Center for Advancing Translational Sciences (NCATS).
